Assay outcomes from PubChem BioAssay.
VDR inh: inhibitors of human vitamin D receptor | P11473 | VDR-SRC2-3 peptide fluorescence polarization, 2 h | Potency, µM, for inactives: max response, negative = inhibition, hits mostly inhibitors | 400,000 compounds, 0.93% hits | AID 504847; active = well fitted inhibition curve with a large enough effect; inconclusive = small, poorly fitted or top-dose-only effect, or another doubt; inactive = no such curve, though single readings can be large or run the other way; also: series mostly up to about 120 µM
Target sequence (P11473 whole entry, looked up): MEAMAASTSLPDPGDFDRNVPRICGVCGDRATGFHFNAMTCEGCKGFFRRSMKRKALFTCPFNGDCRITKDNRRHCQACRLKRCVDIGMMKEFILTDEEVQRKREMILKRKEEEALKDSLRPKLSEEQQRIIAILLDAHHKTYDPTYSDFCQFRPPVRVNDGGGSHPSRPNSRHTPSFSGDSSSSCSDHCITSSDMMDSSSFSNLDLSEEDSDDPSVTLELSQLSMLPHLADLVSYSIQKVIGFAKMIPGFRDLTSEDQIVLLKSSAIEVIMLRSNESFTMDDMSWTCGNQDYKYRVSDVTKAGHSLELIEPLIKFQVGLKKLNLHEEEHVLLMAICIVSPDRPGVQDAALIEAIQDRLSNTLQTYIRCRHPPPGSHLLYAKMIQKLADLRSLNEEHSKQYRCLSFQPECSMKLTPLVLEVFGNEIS
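Compounds are added to VDR with labelled SRC2-3 coactivator peptide and held 2 h at room temperature. Inhibition of the VDR–peptide interaction is then read as a change in fluorescence polarization.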
Numbers without * were called inactive; ? = inconclusive; & = joins results of further samples. % is scaled to controls: 0 for no effect and ±100 for the full control effect; potency is read from the fitted curve at half-maximal effect. The list is partial (hit frequency here may not be typical).

VDR inh	Compound
-4%	CCCCCN1CC(O)=C(c2ccccc2)C1=N
4%	O=C(O)/C=C/C(=O)N1CCc2ccccc21
-5%	CCC(=O)c1ccc(OCC(=O)OCC(=O)NCCCc2ccccc2)cc1
10%	COC(=O)c1ccc2c(=O)n3nc(Nc4ccc(F)cc4F)sc3nc2c1
-16%	CN1C(=O)c2ccccc2Sc2ccc(C(=O)O)cc21
-6%	Cc1ccc(Cl)cc1-n1c(=O)c2sc3ccccc3c2n(Cc2ccccc2)c1=O
-6%	O=C(c1ccc(SCc2cccc(Br)c2)c([N+](=O)[O-])c1)N1CCN(c2ccccn2)CC1
4%	CCOc1ccc(Cn2c(CNS(=O)(=O)c3c(C)cc(C)cc3C)nc3cccnc32)cc1
-11%	O=[N+]([O-])c1ccccc1S(=O)(=O)Nc1nc2ccccc2s1
1%	COc1ccc(CC(=O)N2CC(=O)Nc3ccc(F)cc3C2c2ccccc2)cc1 (stereo unspecified)

(more compounds)
VDR inh	Compound
-8%	O=C(O)c1ccc(N/N=C/c2ccc(OC(=O)c3ccccc3Cl)cc2)cc1
-10%	Cc1nc(NN)c2c3c(sc2n1)COC(C)(C)C3
-27%	O=C(CNC(=O)OCc1ccccc1)NCC(=O)Oc1ccc([N+](=O)[O-])cc1
-2%	COCC(C)NC(=O)C1c2ccccc2Oc2ccccc21 (stereo unspecified)
4%	CC1CN(C(=O)COC(=O)Cc2c(F)cccc2Cl)CC(C)O1 (stereo unspecified)
-23%	O=C(CSCc1ccco1)c1cccs1
-2%	CCOC(=O)C(Cc1ccccc1)NC(C)=O (stereo unspecified)
-4%	CN1CCN(CCCC(=O)c2ccc(F)cc2)CC1
-3%	COc1ccc(C2/C(=C(/O)c3ccccc3)C(=O)C(=O)N2CCCN2CCOCC2)cc1 (stereo unspecified)
2%	O=C(Nc1ccc2[nH]ncc2c1)c1cccc(F)c1

Further structures follow.
VDR inh	Compound
9%	Cc1cc(C)cc(-n2ccnc2SCC(=O)Nc2ccc(C)c(Cl)c2)c1
14%	O=C(NCCc1ccccc1)c1nn(-c2ccccc2F)nc1CO
-3%	COC(=O)c1cc2ccsc2n1CC(=O)Nc1cc(Cl)ccc1OC
-5%	C1CCN2CC3CC(CN4CCCC[C@@H]34)[C@H]2C1
6%	Clc1cccc(-c2nnc(-c3ccno3)o2)c1
-2%&-11%	COc1cc(OC)c2c(-c3ccccc3)cc(=O)oc2c1C(CCN1CCOCC1)c1ccc(N(C)C)cc1 (stereo unspecified)
-8%	Cc1ccc(OCC(=O)Nc2cc(NC(=O)COc3ccc(C)cc3)cc(C(=O)O)c2)cc1
-5%	CCCCN(C)CCNC(=O)Cn1ncc2c(=O)oc3ccc(C)cc3c21
-12%	CC(C)(C)CC(=O)Nc1cc2c3c(c1)CCN3C(=O)CC2
2%	Cc1ccccc1NC(=O)C(=O)NCCCN1CCCC1=O

Retrieved by structure from the entries so far:
VDR inh	Compound
-5%	CCCCN(C)CCNC(=O)Cn1ncc2c(=O)oc3ccc(C)cc3c21
6%	Clc1cccc(-c2nnc(-c3ccno3)o2)c1

Structures shown so far with a Cl atom, in the order listed:
VDR inh	Compound
-6%	Cc1ccc(Cl)cc1-n1c(=O)c2sc3ccccc3c2n(Cc2ccccc2)c1=O
-8%	O=C(O)c1ccc(N/N=C/c2ccc(OC(=O)c3ccccc3Cl)cc2)cc1
4%	CC1CN(C(=O)COC(=O)Cc2c(F)cccc2Cl)CC(C)O1 (stereo unspecified)
9%	Cc1cc(C)cc(-n2ccnc2SCC(=O)Nc2ccc(C)c(Cl)c2)c1
-3%	COC(=O)c1cc2ccsc2n1CC(=O)Nc1cc(Cl)ccc1OC
6%	Clc1cccc(-c2nnc(-c3ccno3)o2)c1

More records.
VDR inh	Compound
-9%	CCc1ccccc1N(CC)C(=O)c1cc2c(s1)-c1ccccc1SC2
-20%	O=C(Nc1cccc(F)c1)C1CC(=O)N(c2ccc(Br)cc2)C1 (stereo unspecified)
7%	Cn1cc(CN2CCCC(C(=O)c3ccc(-c4ccccc4)cc3)C2)cn1 (stereo unspecified)
7%	CCC(=O)n1nc(-c2ccco2)nc1N
12%	O=C(CNC(=O)C1CCCCC1)OCC(=O)c1ccc(Cl)s1
-2%	O=C(CN1CCN(C2CCCCC2)CC1)Nc1ccc(Br)cc1
8%	COc1ccccc1C(CNC(=O)CSc1ccc2ccccc2c1)N(C)C (stereo unspecified)
-2%	CCC/C=N/Nc1nnc(Cc2ccccc2)c(=O)[nH]1
-7%	Cc1ccccc1S(=O)(=O)c1c(C)cc(-c2ccccc2)[nH]c1=O
-7%	O=C(CSc1nc(=O)n(CCCN2CCOCC2)c2c1CCCC2)Nc1cccc([N+](=O)[O-])c1

The results go on.
VDR inh	Compound
?	CC(=O)Nc1ccc(SC[C@H](Cc2ccccc2)N2CC[C@@H](C(C)(C)C)CCC2=O)cc1
-10%	Cc1ccc(C(=O)CSc2nc(-c3ccccc3)cc(=O)[nH]2)cc1
17%	Cc1cccc(C)c1NC(=O)c1cc(S(=O)(=O)N2CCc3ccccc3C2)ccc1F
9%	COC(=O)c1ccc(Sc2ccccc2NS(=O)(=O)c2ccc(C)cc2)nc1
0%	Cc1ccc(NC(=S)N(CCCN2CCOCC2)Cc2ccco2)cc1Cl
9%	COc1ccc2nc(N3C(=O)CNC3=S)sc2c1
5%	CC1=CC(C)(C)n2c(O)c(N=NC(N)=S)c3c(C)c(C)cc1c32
-4%	Cc1onc(-c2c(F)cccc2Cl)c1-c1nnc(-c2ccc(C(F)(F)F)cc2)o1
1%	Cn1c2ccccc2c2c(C(=O)N3CCN(c4ccccc4)CC3)cn(C3CCCC3)c(=O)c21
-18%	O=S(=O)(NCCSCc1ccc(Cl)cc1Cl)c1ccc2c(c1)OCCO2

(more compounds)
VDR inh	Compound
-17%	Cc1ccc2[nH]c(=O)c(CN(Cc3cccs3)S(=O)(=O)c3ccc4c(c3)OCCO4)cc2c1
3%	CC1CC(C)CN(S(=O)(=O)c2ccc3c(c2)CC(C)N3C(=O)C2CC2)C1 (stereo unspecified)
-28%	CCCCC[C@@H]1C=C(C(=O)O)[C@H](c2ccc(C#N)cc2)N1S(=O)(=O)c1ccc(C)cc1
-16%	CCCOc1ccc(C(=O)NNC(=S)NC(=O)c2ccccc2[N+](=O)[O-])cc1
-14%&9%	CCC(Oc1ccccc1)C(=O)Nc1nnc(S(=O)(=O)Nc2ccccc2)s1 (stereo unspecified)
-10%	COc1cc(CC(=O)OCC(=O)c2ccc(F)cc2)cc(OC)c1OC
-1%	O=C1NC2(CCCCCC2)C(=O)N1Cc1cccc(Cl)c1
-20%	Cc1ccc(S(=O)(=O)Nc2cccc(-n3cnnn3)c2)cc1C(=O)O
10%	Cc1nc(-c2ccc(Cl)cc2)sc1C(=O)NNC(=O)C(C)C
16%	Cc1ccccc1CCNC(=O)c1ccc2c(c1)nc1n2CCOC1

Next part.
VDR inh	Compound
-20%	CCCCn1c(N)c(N(CC(C)C)C(=O)c2ccc(Br)s2)c(=O)[nH]c1=O
-22%	N#Cc1ccc(OCC(=O)Nc2ccc(N3CCCC3)cc2)cc1
-4%	CCC1CCCCN1CC(=O)N1CCCc2c1c(=O)oc1ccc(OCc3ccccc3)cc21 (stereo unspecified)
-24%	CC#CCCc1nc2ccccc2c(=O)n1N
-1%	c1ccc(CC[C@@H]2CC[C@@H](CCc3ccccc3)N2)cc1
-13%	COc1ccc(-c2nnc3ccc(SCc4ccccc4)nn23)cc1
19%	COc1ccccc1N(C)S(=O)(=O)c1ccc(C(=O)Nc2cccc(S(=O)(=O)N3CCOCC3)c2)cc1
-1%	CCOc1ccc(Oc2c(/C=N/NC(=O)COc3ccccc3OC)c(C)nn2-c2ccccc2)cc1
-16%	O=C(COc1ccc(Br)cc1CO)Nc1ccc(S(=O)(=O)N2CCCC2)cc1
-21%	O=C1c2ccccc2C(=O)N1CCC(c1ccc(F)cc1)c1ccco1 (stereo unspecified)

(cont.)
VDR inh	Compound
-17%	CC1CCN(C(=O)C2CCN(c3ncnc4c3nc3n4CCCCC3)CC2)CC1
-8%	COCCCN(C(=O)Cc1ccc(Cl)c(Cl)c1)c1c(N)n(Cc2ccccc2)c(=O)[nH]c1=O
-7%	CCCN1CCN(CCCNC(=O)Cn2c(-c3cccs3)cc3ccccc32)CC1
-5%	CC1CC1C(=O)OCC(=O)NCc1ccccc1Cl (stereo unspecified)
13%	O=C(Cc1ccccc1)N/N=C/c1ccc2cccc(O)c2n1
7%	O=c1[nH]c2ccc(S(=O)(=O)Nc3ccc(Cl)cc3)cc2[nH]1
-15%	CCN(CC)S(=O)(=O)c1ccc2c(c1)nc(CCC(=O)OCC(=O)N1CCc3ccccc31)n2C
8%	Cc1ccsc1-c1nc(-c2ccccc2)c(-c2ccccc2)[nH]1
6%	COc1ccc([C@H]2CC(=O)C=C(c3ccc(Cl)cc3C)C2)cc1
10%	CCCCCn1c(CNC(=O)COC)nc2ccccc21

Additional records.
VDR inh	Compound
-10%	COc1cccc(/C=C/C(=O)OCC(=O)NCC2CCCO2)c1 (stereo unspecified)
-7%	CCCOc1ccc(CCc2n[nH]c(=S)n2-c2ccccc2)cc1
6%	Clc1cccc(-n2ncc3c(N4CCCCCC4)ncnc32)c1
12%	O=C(CN1CCN(CC(=O)Nc2ccc(OCc3ccccc3)cc2)CC1)Nc1ccc(F)cc1
10%	CC(C)NC(=S)N1CCN(Cc2ccc3c(c2)OCO3)CC1
?	COc1ccccc1-c1n[nH]c(=S)n1Cc1ccccc1
3%	CC(=O)NC1C(=O)N=C(SCC(=O)NC(C)c2ccccc2)NC1=O (stereo unspecified)
-6%	O=C(NCc1ccccc1)NC(=O)c1ccc(Cl)cc1
3%	N#C/C(=C\c1ccc(OCc2ccccc2)cc1)C(=O)Nc1nc2c(s1)CCN(Cc1ccccc1)C2
10%	COc1cc2ncc3c(-c4ccc(C)cc4)nn(-c4ccc(F)cc4F)c3c2cc1OC

More entries follow:
VDR inh	Compound
-12%	COc1ccc(NS(=O)(=O)c2ccc(N3CCOCC3)c(NC(=O)C(C)C)c2)cc1
-2%	O=C(NC1CCCc2ccccc21)c1ccc([N+](=O)[O-])cc1 (stereo unspecified)
3%	Cc1ccc(-c2cc(C(=O)Nc3cccc(S(=O)(=O)N(C)C)c3)c3ccccc3n2)o1
0%	CC(C(=O)Nc1ccccn1)N1C(=O)C2C3C=CC(C3)C2C1=O (stereo unspecified)
20%	CCOc1ccc(C(=O)Nc2cccc(OCc3cc(=O)n4ccccc4n3)c2)cc1
6%	CCc1cccc(CC)c1NC(=O)c1ccc(-n2cncn2)nc1
-23%	CCCCn1c(SCc2nc3ccccc3s2)nc2ccccc2c1=O
-6%	Cc1sc2ncnc(N3CCC(C(=O)Oc4cccc(Cl)c4Cl)CC3)c2c1C
-14%	Cc1sc2nc(N3CCOCC3)[nH]c(=O)c2c1-c1ccccc1
15%	CCCNC(=O)NC1C(NC(=O)NCCC)N(C)C(=O)N1C (stereo unspecified)

(cont.)
VDR inh	Compound
10%	Cc1ccc(S(=O)(=O)N2CCOCC2)cc1NC(=O)COc1ccccc1Cc1ccccc1
7%	COc1ccccc1N1CCN(c2ncnc3onc(-c4ccc(F)cc4)c23)CC1
-14%	COc1ccc(/C=C/C(=O)OCC(=O)Nc2ccc(C)cc2)cc1S(=O)(=O)N1CCOCC1
30%	Cn1c(=O)c2c(c3ccccc31)OC(C)(C)CC2
-10%	O=S1(=O)N=C2CCCCCN2C(c2ccc(Cl)cc2)N1 (stereo unspecified)
16%	CCOC(=O)CSc1nnc(CNC(=O)c2ccc(S(=O)(=O)N(C)C)cc2)n1C
-13%	CCn1c(NCc2ccc(OC)c(OC)c2)nc2ccccc21
-19%	COc1ccc(-c2oc(NC(=O)CCl)c(C#N)c2-c2ccc(OC)cc2)cc1
-14%	CN(C)S(=O)(=O)Oc1ccccc1C(=O)Nc1cccc(C(F)(F)F)c1
-21%	COc1cc(NC(=S)N2CCOCC2)c(OC)cc1Cl

(continued)
VDR inh	Compound
12%	CCCCN(C)Cc1c(C)[nH]c2ccc(C)cc2c1=O
6%	COC(=O)C1CCN(C(=O)Cc2ccccc2OC)CC1
-4%	COc1ccc(C2C(C(=O)N3CCOCC3)=C(C)NC3=C2C(=O)CC(C)(C)C3)cc1O (stereo unspecified)
-6%	CSc1ccc(C2NC(=O)c3ccccc3N2)cc1 (stereo unspecified)
-9%	O=C(CC1C(=O)N(c2ccccc2)C(=S)N1c1ccccc1)c1ccc(Br)cc1 (stereo unspecified)
-20%	CCSc1ccc([C@@H]2[C@H]3C(=O)N(C)C(=O)[C@H]3[C@]3(C(=O)OC)CCCCN23)cc1OC
-6%	COc1ccc(-c2nc(SCC(=O)NCCc3ccc(OC)c(OC)c3)n[nH]2)cc1
-8%	COc1ccc(-c2csc(NC(=O)CS(=O)(=O)c3ccc(F)cc3)n2)cc1OC
-21%	COc1ccccc1NC(=O)CSc1nnc(-c2ccccn2)n1Cc1ccco1
1%	O=C(CSc1nnc(-c2cccnc2)o1)Oc1ccccc1

Ordered by the number under VDR inh (smallest number first): 3 of the compounds above
compound | VDR inh
O=C(CC1C(=O)N(c2ccccc2)C(=S)N1c1ccccc1)c1ccc(Br)cc1 (stereo unspecified) | -9%
COc1ccc(-c2nc(SCC(=O)NCCc3ccc(OC)c(OC)c3)n[nH]2)cc1 | -6%
O=C(CSc1nnc(-c2cccnc2)o1)Oc1ccccc1 | 1%

(next part)
VDR inh	Compound
18%	COc1ccccc1C(=O)Nc1sc(Nc2ccccc2)nc1C(N)=O
1%	COCc1cc(C)nc(SCC(=O)N2CCC(C)CC2)c1C#N
?	CCCCCCN(C(=O)CCl)c1ccccc1
?	O=C(C(=O)N1CCN(c2ccccc2F)CC1)c1cn(CC(=O)N2CCOCC2)c2ccccc12
-26%	CCCCOc1ccc(-c2nn(-c3ccccc3)cc2C2NC(=O)NC(C)=C2C(=O)OCC)cc1 (stereo unspecified)
-21%	COc1ccc(Cl)cc1NC(=O)C/C(C)=N/NC(=O)CC#N
12%	Cc1ccc(S(=O)(=O)N(CC(=O)N2CCCCC2)c2cccc(C)c2)cc1
-24%	O=C(NCCS(=O)(=O)N1CCC2(CC1)OCCO2)c1ccccc1
?	Cc1sc(NC(=O)C2=COCCO2)c(C#N)c1C
